CSC inhib – cancer stem cell inhibition; actives 1.1% (n = 300,000); cancer stem cell-like cells viability, luminescence; inhibition, % at 7.5 µM;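 active = mean at 75% or more and at least half the replicates too; tested in HMLE shEcad cells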;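 note: 0% = median of negative and 100% = median of positive control wells; the first replicate is given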
Rce1 inh – inhibitors of yeast Ras-converting enzyme | Q03530 | yeast membranes, quenched prenylated peptide cleavage fluorescence | calls only | actives 0.27% (n = 290,000);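 active = fall in fluorescence gain of 50% or more versus controls, with final raw signal at or below 3038400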;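 note: plate controls were neutral control wells for no effect and wells lacking membranes for full effect; tested at 10 µM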
eIF4H FP inh – inhibitors of RNA binding by human eIF4H | Q15056 | eIF4H fluorescence polarization binding assay | inhibition, % at 35 µM | actives 0.94% (n = 290,000) | AID 2012;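 active = 50% or more with normal probe brightness, or confirmed in later tests; about a fifth of its hits are not listed in these tables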;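 note: calls also rest on retests at 20 µM and on dose response follow-up; 0% = protein and probe with vehicle and 100% = probe without protein; strong numbers were not always called active; many hits fall short of the cut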
Yeast UUG start – alters start codon recognition fidelity in yeast; actives 0.13% (n = 350,000); activity score, % at 18.7 µM; S. cerevisiae UUG-firefly luciferase reporter, luminescence/redox ratio;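 active = replicate mean at a twofold rise or more, about +100% in these data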;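 note: firefly luciferase made from a UUG start codon reports start codon fidelity; reporter light over untreated wells divided by growth signal over untreated wells; some hits fall short of that in this replicate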
HIV Env fusion – blocks HIV Env-driven cell-cell fusion; HeLa-JRFL Env/CEM21 cell fusion, luciferase; inhibition, % at 12.3 µM; actives 1.1% (n = 360,000); AID 651610;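 active = mean replicate inhibition score of at least 50 and every replicate individually at or above 50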;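 note: 0% = plate neutral controls and 100% = maraviroc near 300 nM; one replicate is shown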
MT1-MMP act inh – blocks activation of human MT1-MMP; actives 0.061% (n = 360,000); HT1080 RFP-PRO-GFP cells, GFP/RFP ratio fluorescence, overnight; percent of plate control window, DMSO zero; GFP/RFP ratio change, % at 20 µM;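 active = GFP/RFP ratio change of at least 30% with cell ATP level not reduced by more than half and red fluorescence within 50% of control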; note: strong numbers were not always called active
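Compound: 20 µM single dose, 1% DMSO / System: HT1080 RFP-PRO-GFP cells / Controls: DMSO and RFP-L50D-GFP cell wells / Read-out basis: GFP/RFP fluorescence ratio / Schedule: overnight compound exposure at 37 °C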
PABP FP inh – blocks human PABP binding to poly(A) RNA | AID 2014 | fluorescence polarization | actives 1% (n = 290,000) | P11940 | inhibition, % at 35 µM;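 active = 50% or more with normal probe brightness, or confirmed in later tests; about a fifth of its hits are not listed in these tables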;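 note: calls also rest on retests at 20 µM and on dose response follow-up; controls were probe without protein and protein plus probe with vehicle; some compounds called inactive have numbers as strong as hits; many hits fall short of the cut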
Target sequence (P11940 whole entry, looked up): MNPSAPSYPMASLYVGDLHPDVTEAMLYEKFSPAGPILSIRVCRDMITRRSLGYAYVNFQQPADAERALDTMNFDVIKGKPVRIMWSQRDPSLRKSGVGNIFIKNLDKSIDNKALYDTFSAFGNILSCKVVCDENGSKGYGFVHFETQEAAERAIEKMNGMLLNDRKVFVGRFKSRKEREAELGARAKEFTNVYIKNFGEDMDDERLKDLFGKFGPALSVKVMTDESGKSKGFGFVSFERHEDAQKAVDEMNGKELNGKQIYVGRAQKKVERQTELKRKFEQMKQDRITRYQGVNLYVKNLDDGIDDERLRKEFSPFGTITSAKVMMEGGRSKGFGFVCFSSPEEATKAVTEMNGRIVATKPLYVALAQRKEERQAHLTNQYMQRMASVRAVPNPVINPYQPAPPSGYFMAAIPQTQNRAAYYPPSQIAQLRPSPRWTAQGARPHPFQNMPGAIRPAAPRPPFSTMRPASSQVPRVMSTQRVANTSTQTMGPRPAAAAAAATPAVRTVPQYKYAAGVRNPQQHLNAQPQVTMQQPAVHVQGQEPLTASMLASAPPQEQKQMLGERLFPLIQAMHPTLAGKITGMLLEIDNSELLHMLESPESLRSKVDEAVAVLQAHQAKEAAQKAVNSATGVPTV
MT1-MMP act inh RFP – further read-out of MT1-MMP act inh, marked with its call; RFP signal change, %; measured here: RFP expression control read;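 0 = vehicle wells; hits needed this value within 50% of zero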
* = called active by the depositor; i = inactive; / = not tested or not shown; & = joins results of further samples; [ ] = dose if it differs, or a comment.

SMILES	CSC inhib	Rce1 inh	eIF4H FP inh	Yeast UUG start	HIV Env fusion	MT1-MMP act inh	MT1-MMP act inh RFP	PABP FP inh
Cc1ccc(C(=O)O)cc1NC(=S)NCCc1ccccc1	-5	i	-3	-18	-3	-3	3	-2
Cn1c(=O)c2c(nc(NN=C3CCCC3)n2C)n(C)c1=O	-12	i	-9	/	-15	2	1	7
CC1CCN(S(=O)(=O)c2cc(C(=O)N3CCN(c4ncccn4)CC3)ccc2Br)CC1	-4	i	-9	5	37	-10	-22	3
CCOC(=O)N1CCN(C(=O)c2cc(OC)c(OC)c(OC)c2)CC1	-5	i	-6	2	-8	-3	5	-1
Cn1c(=O)c2c(nc(CN3CCc4ccccc4C3)n2Cc2ccc(F)cc2)n(C)c1=O	0	i	/	-2	/	-15	-6	/
Cn1nc(C(F)(F)F)c(-c2ccccc2)c1NC(=O)c1cccnc1	-14	i	0	/	-29	-2	-3	1
O=c1c2nnn(-c3ccc(Cl)cc3)c2ncn1Cc1ccccn1	-1	i	2	/	7	5	3	12
COc1ccccc1C(=O)Nc1ccc2[nH]ncc2c1	/	i	-10	-4	-120	-1	-1	0
CC1=CC(C)(C)N(C(=O)CSc2nnc(N)s2)c2c(C)cc(C)cc21	/	/	2	-10	/	-5	-1	-4
Cc1cc(C)c[n+](C[n+]2cc(C)cc(C)c2)c1	-8	i	-6	/	9	-3	-2	3
COc1ccc(/C(=N\O)c2ncc(C(F)(F)F)cc2Cl)cc1	-25	i	-3	4	/	-2	0	-5
C[C@@H]1O[C@@H](OC[C@@H]2O[C@H](Oc3c(-c4ccc(O)cc4)oc4cc(O)cc(O)c4c3=O)[C@@H](O)[C@H](O)[C@H]2O)[C@H](O)[C@H](O)[C@H]1O	-16	/	/	0	-13	3	0	/
Cc1cccc(Nc2nc(N3CCCC3)nc(N3CCCC3)n2)c1	1	i	-3	/	4	-10	-9	1
Cc1ccccc1OCCOCCN1CCCCCC1	22	/	4	/	-8	/	/	-12
Cc1ccc(C(NC(=O)c2ccccc2)C(Cl)Cl)cc1 (centres undefined)	-7	i	-5	19	-1	17	-13	8
CCN1CCN(Cc2nc3c(c(=O)[nH]c(=O)n3C)n2Cc2ccccc2Cl)CC1	1	i	3	-18	31	-4	1	-12
COc1cc(-c2nc(CCNC(=O)c3ccco3)cs2)cc(OC)c1OC	-6	i	-6	-22	28	10	3	-1
Cc1cc(S(=O)(=O)N2CCOCC2)ccc1OCC(=O)NCCN1CCOCC1	-18	i	6	-11	7	2	4	5
CSC1=C(C#N)C(c2ccccc2Cl)C(C(=O)c2cccs2)C(O)(C(F)(F)F)N1 (centres undefined)	-7	i	-3	/	/	-5	3	-10
COc1ccc(S(=O)(=O)Nc2ccc3c(c2)C(=O)N([C@H](C)CO)C[C@H](C)[C@@H](CN(C)C(=O)NC(C)C)O3)cc1	/	/	/	0&-30	2[16.7 µM]	1	-1	/
O=C(COC(=O)c1cc2ccccc2oc1=O)Nc1ccc(F)cc1F	0	i	2	12	-73	2	1	3
Cc1ccc(NCC(=O)N/N=C/c2ccc(-c3cccc(C(F)(F)F)c3)o2)cc1	6	i	2	/	-36	-1	1	23
CCCC(=O)c1ccc(N2CCN(C(=O)OCC)CC2)c(F)c1	-9	i	7	-20	/	-1	-2	-3
CCOc1ncccc1C(=O)N1CCCSC1=Nc1ccc(C(C)=O)cc1	-12	i	-10	/	-3	-3	8	7
O=C(Nc1c2c(nn1-c1ccc(Cl)cc1)CS(=O)(=O)C2)c1ccc2c(c1)OCO2	-8	i	0	1	34	3	5	9
CC(=O)NCCC(=O)Nc1ccc(F)cc1C	-4	i	5	3	/	3	0	0
CN(c1ccccc1C(=O)Nc1ccc2c(c1)n(C)c(=O)n2C)S(C)(=O)=O	-24	i	7	-18	-7	3	4	-8
CCc1ccccc1NC(=O)Cc1cn(C)c2ccccc12	-4	i	9	-8	-24	1	5	2
N#Cc1ccc(Cl)cc1NC(=O)COC(=O)c1ccc(S(=O)(=O)N2CCCC2)cc1	/	i	4	-11	-36	-7	6	-2
C=CCN(CC=C)Cc1cc(=O)oc2cc(OC)ccc12	/	/	/	8	17	3	1	/
O=C(Nc1ccccn1)NC1CCS(=O)(=O)C1 (centres undefined)	-8	i	0	-6	-57	-2	4	-6
CN(C)S(=O)(=O)c1ccc(C(=O)OCC(=O)NC(=O)NCc2ccccc2)cc1	-6	i	-7	-3	-35	10	10	-1
O=C(CSc1c(Cl)cccc1Cl)N1CCC(c2nc3ccccc3s2)CC1	13	i	5	-10	/	6	-9	5
O=[N+]([O-])c1ccc(S(=O)(=O)NCC2COc3ccccc3O2)cc1 (centres undefined)	-2	i	/	-3	-5	0	3	/
Cc1csc(SCC(=O)NCCc2ccc(Cl)cc2Cl)n1	1	i	-5	/	-8	4	3	-6
COc1ccc(CNC(=O)C2CCN(S(C)(=O)=O)CC2)cc1	-20	i	7	/	-2	-1	1	6

Some entries already given, showing only MT1-MMP act inh, MT1-MMP act inh RFP and Rce1 inh.
canonical_smiles | MT1-MMP act inh | MT1-MMP act inh RFP | Rce1 inh
Cn1c(=O)c2c(nc(CN3CCc4ccccc4C3)n2Cc2ccc(F)cc2)n(C)c1=O | -15 | -6 | i
CN(c1ccccc1C(=O)Nc1ccc2c(c1)n(C)c(=O)n2C)S(C)(=O)=O | 3 | 4 | i

The results go on:
SMILES	CSC inhib	Rce1 inh	eIF4H FP inh	Yeast UUG start	HIV Env fusion	MT1-MMP act inh	MT1-MMP act inh RFP	PABP FP inh
CCc1c(O)nc(SCC(=O)Nc2ccc(Br)cc2)n(-c2ccc(C)cc2)c1=O	-18	i	-12	-5	-7	-2	-1	-10
O=C(CCNC(=O)c1ccc([N+](=O)[O-])cc1)Nc1ccc(N2CCOCC2)cc1N1CCOCC1	5	i	0	/	22	-2	1	42
CCOc1ccccc1OCC(=O)Nc1cc(S(=O)(=O)N2CCCCC2)ccc1OC	-5	i	/	38	-5	2	-4	/
COc1ccccc1CC(=O)N1CCN(c2ccc(F)cc2)CC1	-11	/	/	/	-2	2	-9	/
COc1ccc(C(CCNC(C)c2ccccc2)C(C)C)cc1 (centres undefined)	4	i	3	-3	33	-1	-4	0
CN(C(=O)c1cc2c(=O)n3ccccc3nc2n1C)C1CCCCC1	15	i	3	-14	-46	-1	4	12
Cc1ccc(CNC(=O)c2nnn(-c3cccc(C)c3)c2N)cc1	-17	i	8	-4	39	-9	-5	8
Cn1ccnc1Sc1ccc(C=O)cc1[N+](=O)[O-]	-7	i	-7	/	0	-1	3	-7
COC(=O)NNC(=O)COc1ccc(Br)c(C)c1	-11	i	-12	-6	-16	3	1	-1
COc1ccc([N+](=O)[O-])cc1NS(=O)(=O)c1ccc(C)cc1	8	i	5	-18	6	-1	-1	9
Fc1ccc(-c2n[nH]c(=S)n2/N=C/c2c[nH]c3ccccc23)cc1	17	i	-2	/	-3	1	2	2
COc1ccc(/C=N/Nc2cc(C)nc(-n3nc(C)cc3C)n2)c(OC)c1	7	i	12	/	37	-3	-7	-9
CCN(CC)CCC(=O)N1c2ccccc2Sc2ccc(Cl)cc21	4	i	/	-15	/	3	0	/
O=C(Nc1nnc(SCc2ccccc2Cl)s1)c1cccc([N+](=O)[O-])c1	43	i	-10	/	23	-2	-12	38
CCOC(=O)c1c(N)nn(C(=O)C(C)(C)C)c1-c1ccccc1	-7	i	-7	-14	-45	1	4	-4
CC(C)c1ccc(NC(=O)C2CC(=O)Nc3nc4ccccc4n32)cc1 (centres undefined)	-8	i	-2	-12	-9	0	3	8
Cc1c(C(=O)N/N=C/c2ccc(O)cc2)sc(=S)n1C	/	i	-12	/	/	-2	1	0
CCOc1ccc(NC(=O)CSc2nnc(-c3ccoc3C)n2CC2CCCO2)cc1 (centres undefined)	-8	i	7	6	-2	0	-1	-6
O=C(CSCc1ccccc1Cl)NN1C(=O)c2ccccc2C1=O	-7	i	-9	-16	-18	6	2	2
COc1ccc2c(=O)c(-c3ccc(OC)c(OC)c3)coc2c1	-7	i	-2	-21	/	-1	-6	0
O=C(O)c1cccc2c1C(=O)c1ccccc1C2=O	-3	i	-7	8	8	3	6	3
O=S(=O)(NC1CCCC1)c1ccc(-n2cnnn2)cc1	-7	i	7	-2	-11	1	0	0
CC1CCCC(C)N1/N=C/c1ccc(Cl)cc1 (centres undefined)	-11	i	-4	-14	-2	0	1	1
Brc1ccc(Nc2ncnc3[nH]ncc23)cc1	9	i	-1	-16	10	-8	0	4
O=C(O)CCc1n[nH]c(=S)[nH]c1=O	13	i	-3	4	8	0	4	-18
NC(=NC(=O)c1ccc(Cl)cc1)N1N=CCC1c1ccccc1 (centres undefined)	4	i	4	-1	20	-2	-7	-11
CN1CC(c2ccc(Cl)c(Cl)c2)[C@@]2(COc3ccccc3C2=O)[C@@]12C(=O)Nc1ccccc12 (some centres undefined)	-11	i	-3	-1	103*	-32	-17	-1
O=C(CN1CCN(Cc2ccccc2)CC1)N/N=C/c1cccnc1	-6	i	0	/	-19	-2	2	0
O=C(CSc1nnnn1-c1ccc(F)cc1)NNC(=O)c1ccco1	0	i	-5	-25	10	-1	1	24
COc1cccc(CNC(=O)CC(NC(C)=O)c2ccccc2)c1 (centres undefined)	0	i	4	9	13	1	4	1
Cc1ccc(C(=O)CNc2ccc(C)cc2C)cc1	-4	i	-5	-30	4	1	2	3
CC[C@]12c3[nH]c4ccccc4c3CCN1C(=O)C(CC(=O)NCCCOC)C[C@@H]2C(=O)N1CCN(C(=O)C2CC2)CC1 (some centres undefined)	/	/	/	13	-19	-2	5	/
S=c1[nH]nc(-c2ccc(Br)cc2)n1Cc1ccco1	-9	i	-7	-15	/	1	1	-3
COc1ccc(CNC(=O)c2cc(=O)c3ccc(C)c(C)c3o2)cc1	13	i	-10	-15	12	0	-6	6
CCN(c1ccc(NS(=O)(=O)c2cc(Cl)ccc2Cl)cc1)C(C)C	/	i	8	/	-14	-5	-3	4
CCOc1ccccc1Oc1ccc(C(F)(F)F)cn1	-7	i	-1	0	/	4	2	0
O=C(Nn1cnc2ccccc2c1=O)c1ccc(Br)cc1	12	i	-3	-20	-1	-2	-2	7
COc1ccc(OC)c(NC(=O)c2cc(S(=O)(=O)NCc3ccco3)ccc2F)c1	-7	i	-6	3	-3	4	0	-6
COc1ccc(CCNC(=O)COC(=O)c2cnc(Cl)c(Cl)c2)cc1	5	/	/	-8	/	-1	2	/
COCCNC(=O)CN(c1ccc(OC)c(OC)c1)S(=O)(=O)c1ccc(C)cc1	-16	i	-6	5	/	7	1	1
COc1ccc(C(=O)N/N=C/c2ccccc2OC(=O)c2ccccc2)cc1	/	i	-2	-31	-3	-2	-5	8
Cn1c(=O)[nH]c(=O)c2c1nc(SCC(O)CO)n2Cc1ccccc1Cl (centres undefined)	-14	i	15	/	-14	2	2	2
O=C(Cn1cc(C(=O)C(F)(F)F)c2ccccc21)Nc1ccccc1F	9	i	5	-8	-2	-1	0	-1
CCn1c(SCC(=O)Nc2ccc(C)cc2)nc2sc3c(c2c1=O)CCN(C)C3	-25	i	-15	-1	16	-3	4	-2
CON(C)C(=O)CC1(CN(Cc2ccccc2)C(=O)OC(C)(C)C)CCCCC1	/	/	/	14	13	-5	-12	/

In the list so far, 6 have a furan ring, fused or not:
SMILES	CSC inhib	Rce1 inh	eIF4H FP inh	Yeast UUG start	HIV Env fusion	MT1-MMP act inh	MT1-MMP act inh RFP	PABP FP inh
COc1cc(-c2nc(CCNC(=O)c3ccco3)cs2)cc(OC)c1OC	-6	i	-6	-22	28	10	3	-1
Cc1ccc(NCC(=O)N/N=C/c2ccc(-c3cccc(C(F)(F)F)c3)o2)cc1	6	i	2	/	-36	-1	1	23
CCOc1ccc(NC(=O)CSc2nnc(-c3ccoc3C)n2CC2CCCO2)cc1 (centres undefined)	-8	i	7	6	-2	0	-1	-6
O=C(CSc1nnnn1-c1ccc(F)cc1)NNC(=O)c1ccco1	0	i	-5	-25	10	-1	1	24
S=c1[nH]nc(-c2ccc(Br)cc2)n1Cc1ccco1	-9	i	-7	-15	/	1	1	-3
COc1ccc(OC)c(NC(=O)c2cc(S(=O)(=O)NCc3ccco3)ccc2F)c1	-7	i	-6	3	-3	4	0	-6
